Screens (PubChem BioAssay)
VDR inh: inhibitors of human vitamin D receptor; P11473; VDR-SRC2-3 peptide fluorescence polarization, 2 h; Potency, µM, for the others: max response, negative = inhibition, most hits filed as inhibitors; 0.93% of 400,000 active; AID 504847; active = well fitted inhibition curve with a large enough effect; inconclusive = small, poorly fitted or top-dose-only effect, or another doubt; inactive = no such curve, though single readings can be large or run the other way; also: series mostly up to about 120 µM
Target sequence (P11473 whole entry, looked up): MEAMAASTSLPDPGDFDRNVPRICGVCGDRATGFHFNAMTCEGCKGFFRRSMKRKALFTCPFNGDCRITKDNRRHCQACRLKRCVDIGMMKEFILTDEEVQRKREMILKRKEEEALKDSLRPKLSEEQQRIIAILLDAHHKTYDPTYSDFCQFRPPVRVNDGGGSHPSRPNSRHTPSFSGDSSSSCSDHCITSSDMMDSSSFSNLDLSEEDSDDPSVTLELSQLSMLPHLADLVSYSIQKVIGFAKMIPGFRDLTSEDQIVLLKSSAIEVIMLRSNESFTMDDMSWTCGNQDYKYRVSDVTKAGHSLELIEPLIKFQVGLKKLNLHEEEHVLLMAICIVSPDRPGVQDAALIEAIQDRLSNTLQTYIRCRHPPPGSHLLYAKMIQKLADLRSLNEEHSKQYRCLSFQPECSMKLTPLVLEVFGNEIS
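Compounds are added to VDR with labelled SRC2-3 coactivator peptide and held 2 h at room temperature. Inhibition of the VDR–peptide interaction is then read as a change in fluorescence polarization.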
* = called active by the depositor; ? = inconclusive; & = joins results of further samples; [ ] = remark or other dose. % is scaled to controls: 0 for no effect and ±100 for the full control effect; potency is read from the fitted curve at half-maximal effect.

VDR inh	Structure
0%	C=C(C)C1CC=C(C)/C(=N/NC(=O)CNc2ccc(OCC)cc2)C1 (centres undefined)
-12%	COc1cc(/C=N/NC(=O)c2ccncc2)ccc1Oc1ccc([N+](=O)[O-])cn1
-4%	CC(C(=O)Nc1ccc2c(c1)OCCO2)N1CCN(C(=O)c2ccco2)CC1 (centres undefined)
21%	Cc1cccc(CCNC(=O)C2CCCN(c3cnccn3)C2)c1 (centres undefined)
7%	Cc1cc(C)c2nc(NNC(=O)c3ccc(S(=O)(=O)N4CCc5ccccc5C4)cc3)sc2c1
-1%	CCOC(=O)c1cnc(SC)nc1N1CCCC1
-14%	COc1ccccc1N1CCN(C(=O)Nc2ccc([N+](=O)[O-])cc2)CC1
23%	O=C(NC(C(=O)N/N=C/c1cccc2ccccc12)c1n[nH]c(=O)c2ccccc12)c1ccccc1 (centres undefined)
-4%	COc1cccc(N2C(C(C)=O)=NN(c3ccccc3)C2c2ccc(N3CCOCC3)cc2)c1 (centres undefined)
6%	CCC(CC)C(=O)Nc1nnc(S(=O)(=O)N2CCCC2)s1
2%	O=C(c1cc(-c2cccc(O)c2)on1)N1CCCC1
1%	CN(C)c1ccc([N+](=O)[O-])cc1C(=O)O
11%	COc1ccc2c(CCNC(=O)c3ccco3)c[nH]c2c1
-2%	Cc1ccc(NCc2nnc(SCCN3CCCCC3)n2CC2CCCO2)cc1Cl (centres undefined)
-13%	CC(=O)N(C)c1ccc(NC(=O)C(F)(F)F)cc1
-5%	Clc1ccc(COc2ccccn2)cc1Cl
-5%	Cc1ccc(F)cc1CNC(=O)C1CCC(=O)N(C2CC2)C1 (centres undefined)
?	Cn1c(/C=C/c2ccc(Cl)cc2Cl)c([N+](=O)[O-])c(=O)n(C)c1=O
-4%&11%	Cn1c(=O)c(=O)n(C)c2cc(S(=O)(=O)CCC(=O)Nc3cccc(C(F)(F)F)c3)ccc21
-4%	CN1OC[C@@H]2CN(C(=O)CCc3ccccc3)[C@H](c3cccc(-c4ccccc4)c3)C[C@@H]21
7%	CC(=O)N/N=C(\N)c1nonc1N
-19%	CCCN(C(=O)C(C)Oc1cccc(Cl)c1)c1c(N)n(Cc2ccccc2)c(=O)[nH]c1=O (centres undefined)
-15%	O=C(N/C(=C/c1cccs1)C(=O)N1CCOCC1)c1ccccc1
8%	CCOc1ccc(C2CC(c3c(O)n(C4CCCCC4)c(=O)[nH]c3=O)=Nc3ccccc3S2)cc1 (centres undefined)
-3%	Cc1cc(C)cc(N(CC(=O)NC(C)C)C(=O)CCC(=O)Nc2ccccn2)c1

Arranged by molecular weight (largest number first): 3 of the compounds above.
VDR inh	Structure
-2%	Cc1ccc(NCc2nnc(SCCN3CCCCC3)n2CC2CCCO2)cc1Cl (centres undefined)
-4%	CN1OC[C@@H]2CN(C(=O)CCc3ccccc3)[C@H](c3cccc(-c4ccccc4)c3)C[C@@H]21
7%	CC(=O)N/N=C(\N)c1nonc1N

Next part:
VDR inh	Structure
?	COc1ccnc(CSC(N)=Nc2ccc(F)cc2)c1
-9%	Clc1ccc(OCc2cc(-c3ccccc3)no2)c(Cl)c1
-8%	Cc1ccc(S(=O)(=O)N2CCC(NC(=O)c3ccccc3)CC2)cc1
-11%	O=C(COc1cc(F)ccc1[N+](=O)[O-])Nc1cccc(Br)c1
3%	N#Cc1ccccc1/C=N/Nc1nc(-c2ccccc2)c2cc(Br)ccc2n1
11%	CCOc1ccc(CCNC(=O)Cn2nc(CC)n3c(cc4c(OC)cccc43)c2=O)cc1OCC
-16%	Cc1nc(C(=O)NNC(=O)c2c(-c3c(Cl)cccc3Cl)noc2C)cs1
2%	Cc1cc(C)cc(NC(=O)Cn2c(=O)n(CCC(C)C)c(=O)c3cccnc32)c1
-2%	COc1ccc(C(=O)NCCNC(=O)c2ccc(OC)cc2)cc1
-4%	Brc1cccc(/C=N\n2cnnc2)c1
-4%	O=C(Nc1ccc(Cc2ccc(NC(=O)C3CC3)c(O)c2)cc1O)C1CC1
6%	O=C1CCC(=O)N(O)CCCCCNC(=O)CCC(=O)N(O)CCCCNC(=O)CCC(=O)N(O)CCCCCN1
7%	O=c1[nH]cnc2c1c(-c1ccccc1)cn2-c1ccc(F)cc1
-9%&-16%	C=C1CCN(C(Cc2ccccc2)C(=O)NCc2ccc(Cl)cc2)S(=O)(=O)c2ccccc21 (centres undefined)
-14%	O=C(COc1ccc2oc(-c3ccco3)cc(=O)c2c1)N1CCCCC1
15%	N#CCC(=N)N1CCN(c2cccc(Cl)c2)CC1
0%	O=C(CCCN1C(=O)C2CC=CCC2C1=O)Nc1ccccc1F (centres undefined)
-17%	CC(C)(C)NC(=O)COC(=O)c1cc(F)c(F)cc1Cl
4%	COc1ccc(CCNC(=O)c2nc(SCc3ccc(C)cc3)ncc2Cl)cc1OC
-14%	COc1ccccc1C(c1nnnn1C(C)(C)C)N1CCN(Cc2ccncc2)CC1 (centres undefined)
25%	COc1ccccc1-n1nc(C)c(-c2ccccc2)c1N
5%	COc1ccc(N2CCN(C(=O)CN3CCN(c4nc(-c5ccc(F)cc5)cs4)CC3)CC2)cc1
-19%	CCN1CCN(C(c2cccs2)C(C)NS(=O)(=O)c2ccc(F)cc2)CC1 (centres undefined)
-14%	COc1cccc(NC(=O)CCNS(=O)(=O)c2ccc3c(c2)CC(C)N3C(=O)C2CC2)c1 (centres undefined)
14%	O=C(Nc1ccc2oc(-c3ccccc3)nc2c1)c1cc(-n2cnnc2)ccc1Cl

Nothing new here: six of the compounds above.
VDR inh	Structure
-2%	COc1ccc(C(=O)NCCNC(=O)c2ccc(OC)cc2)cc1
-4%	Brc1cccc(/C=N\n2cnnc2)c1
-4%	O=C(Nc1ccc(Cc2ccc(NC(=O)C3CC3)c(O)c2)cc1O)C1CC1
6%	O=C1CCC(=O)N(O)CCCCCNC(=O)CCC(=O)N(O)CCCCNC(=O)CCC(=O)N(O)CCCCCN1
7%	O=c1[nH]cnc2c1c(-c1ccccc1)cn2-c1ccc(F)cc1
-9%&-16%	C=C1CCN(C(Cc2ccccc2)C(=O)NCc2ccc(Cl)cc2)S(=O)(=O)c2ccccc21 (centres undefined)

(continued)
VDR inh	Structure
6%	COC(=O)C1=NN[C@H](C(=O)OC(C)(C)C)[C@H]1c1ccccc1
-28%	COc1ccc(N2CC(C(=O)NCCc3ccc(Cl)cc3)CC2=O)cc1 (centres undefined)
6%	Cc1cc(C)c2nc(-c3cccc(Cl)c3)c(C)c(C(=O)N3CCOCC3)c2c1
-5%	CC1=CC(=O)[C@H]2C(C)(C)CCC[C@]2(C)[C@@]1(O)CO
11%	Cc1ccc(NC(=O)NCc2nc3ccccc3n2C)cc1
-14%	CCC(C)c1nc2c(c(N3CCC3=O)c1-c1ccccc1)CCCC2 (centres undefined)
-14%	NC(=S)N/N=C/c1coc2ccc(O)cc2c1=O
-6%	CC(C)(O)C#Cc1ccc(CN2CCCC(CNC(=O)c3ccco3)C2)cc1 (centres undefined)
-12%&11%	Nc1ccc(O)c2c(=O)cc(-c3ccccc3Cl)oc12
-3%	Clc1ss/c(=N\c2ccccn2)c1Cl
?	FC(F)(F)c1cc(N2CCOCC2)nc(-c2ccccc2)n1
31%[activator]	CC(=O)c1cccc(OCc2cc(C(=O)N(C)CCc3cnn(C)c3)no2)c1
-8%	COc1ccccc1CNC(=O)c1cnccn1
-4%	COc1ccc(C(CC(=O)O)NC(=O)COc2cc(C)ccc2C)cc1OC (centres undefined)
0%	C[n+]1cn(Cc2cc(Cl)ccc2OC(F)F)c2ccccc21
0%	Cc1c(-c2ccccc2)sc(Br)c1C(=O)N1CCOCC1
-20%	O=S(=O)(Nc1nc2ccccc2nc1NCc1ccco1)c1cccs1
?	O=C(Oc1ccc(C(=S)N2CCOCC2)cc1)c1cccc([N+](=O)[O-])c1
-17%	CCC(c1nnnn1CCOC)N(Cc1cc2c(C)cc(C)cc2[nH]c1=O)CC1CCCO1 (centres undefined)
17%	COc1ccc(OC)c(/C=C(\C#N)c2nc3ccccc3c(=O)[nH]2)c1
8%	Cc1ccc(Nc2nc3ccccc3n3cnnc23)cc1C
-20%	O=C(c1c(F)cccc1F)N1CCCC1
-13%	COc1cccc(/C=N/NC(=O)CN(C2=NS(=O)(=O)c3ccccc32)c2ccccc2)c1
-19%	O=C(Nc1ccccc1)N(C1=NCCC1)c1ccc(OC(F)F)cc1
2%	CC(OC(=O)c1ccc2c(c1)NC(=O)CS2)C(=O)c1ccc(F)cc1 (centres undefined)
-11%	S=c1[nH]nc(-c2ccco2)n1/N=C/c1ccc(Cl)cc1
19%	CCN(C(=O)CSc1nnc(Nc2ccccc2)s1)C1CCS(=O)(=O)C1 (centres undefined)
10%	COc1cccc(C(=O)NCCSc2ccc(Br)cc2)c1
-13%	CC(=O)Nc1cccc(NC(=O)Nc2cccc(Cl)c2C)c1
-6%	CCOC(=O)N1CCc2c(sc3nc[nH]c(=O)c23)C1
10%	O=C(O)CCn1nnc2ccccc21
-5%	Cc1cc(=O)[nH]n(CCO)c1=O
-15%	COc1cccc(NC(=O)CSc2ccc(-c3sc(C)nc3C)nn2)c1
-9%	O=C1c2ccccc2C(Nc2ccc3nc(-c4cccnc4)[nH]c3c2)N1Cc1ccco1 (centres undefined)
-2%	Cc1ccccc1N1C(=O)CC(c2c[nH]c3ccccc23)C1=O (centres undefined)
-14%	Cc1cc(C)c(S(=O)(=O)NCc2ccc3c(c2)cc(C)n3C)c(C)c1
-1%	Cc1nn(-c2ccc3nncn3n2)c(C)c1CCC(=O)Nc1ccc(OC(F)(F)F)cc1
-23%	CC(C)(C)c1ccc2c(c1)C(=O)c1ccccc1C2=O
-10%	Cc1c(Cl)cccc1NC(=O)CC1SC(=NCC2CCCO2)NC1=O (centres undefined)
7%	Cc1cc(-c2nc3ncccc3o2)ccc1NC(=O)CC(C)C
1%	O=C(Cc1ccccc1[N+](=O)[O-])NNC(=O)Nc1ccc2c(c1)OCO2
-1%	COc1ccc(NC(=S)Nc2ccccc2Cl)cn1
-16%	Cc1ccc(NC(=O)c2cccc(S(=O)(=O)N(C)C3CCCCC3)c2)nc1
-3%	COc1cc(C(=O)NCc2nnc(SCC(=O)NCc3ccco3)o2)cc(OC)c1OC
3%	CC1CCCC(C)N1C(=O)CSc1nnnn1-c1cccc2c1CCCC2 (centres undefined)
10%	CCS(=O)(=O)c1nc(S(=O)(=O)c2ccc(Cl)cc2)c(NCCOC)s1
-3%	COc1ccccc1CN1CCC2(CC1)CCN(C(=O)c1ccco1)CC2
-20%	Brc1ccc(C2NCCS2)cc1 (centres undefined)
-15%	CC(=O)c1sc(NC(=O)c2cccc(N3C(=O)CCC3=O)c2)nc1-c1ccccc1
-20%	CCn1c(C)cc(C=C2C(=O)c3ccccc3C2=O)c1C

(more compounds)
VDR inh	Structure
-8%	O=C(NC(=S)N1CCN(c2ccc([N+](=O)[O-])cc2Cl)CC1)c1ccco1
?	O=C1CCC(C(=O)OCc2cc(Cl)ccc2OC(F)F)N1 (centres undefined)
-21%	O=S(=O)(Nc1ccc(Cl)cc1NS(=O)(=O)c1ccccc1)c1ccccc1
-5%	Cc1ccccc1CSc1nnc(NC(=O)Cc2cccs2)s1
12%	CCC(=O)N1CCN(c2ccc(NC(=O)c3ccccc3)cc2)CC1
-2%	CCOC(=O)C1CCCN(Cc2cccs2)C1 (centres undefined)
16%	Cc1cc(NC(=O)c2ccc(-c3ccc(Br)cc3)o2)cc(-c2nc3ncccc3o2)c1O
-14%	COc1ccccc1-c1cccc([C@@H]2C[C@H]3[C@H](CON3C)CN2Cc2ccccc2)c1
-20%	COc1ccc(C(NC(=O)CN2C(=O)NC3(CCc4ccccc43)C2=O)c2ccc(OC)cc2)cc1 (centres undefined)
-8%	Cc1ccc(CNC(=O)c2nc(S(=O)(=O)Cc3ccc(C)cc3)ncc2Cl)cc1
6%	COc1ccc(NC(=O)Nc2ncccc2C)cc1
?	COc1cc(/C=C2\C(=O)N(c3ccccc3)N=C2C)ccc1Oc1ccc([N+](=O)[O-])cc1[N+](=O)[O-]
26%	COc1cccc(NC(=O)C(OC(=O)c2ccc([N+](=O)[O-])o2)c2ccccc2)c1 (centres undefined)
19%	O=C1CCC(=O)N1c1ccc(S(=O)(=O)Nc2cccc([N+](=O)[O-])c2)cc1
3%	COc1ccc(N2CCN(C(c3ccccc3)c3nnc(-c4ccccc4Cl)o3)CC2)cc1 (centres undefined)
-2%	CSc1nnc(NC(=O)c2cccc(S(=O)(=O)N3CCOCC3)c2)s1
7%	Cc1cc(=O)[nH]c(N2CCCC2)n1
-7%	Cc1ccc(Oc2ccc(Cl)cc2NC(=O)c2ccc(F)cc2F)cc1
11%	Cc1ccccc1NCc1cccn1-c1nnc(N2CCOCC2)s1
1%	Cc1nnc(NC(=O)CSc2nc3ccccc3o2)s1
?	CCc1ccc(NC(=O)C(C)Sc2nc(-c3ccco3)c(C#N)c(=O)[nH]2)cc1 (centres undefined)
-8%	Cc1cc(C)c(C)c(S(=O)(=O)N2CCN(c3ccc(O)cc3)CC2)c1C

Random excerpt: two entries already listed
VDR inh	Structure
-8%	Cc1cc(C)c(C)c(S(=O)(=O)N2CCN(c3ccc(O)cc3)CC2)c1C
-8%	Cc1ccc(CNC(=O)c2nc(S(=O)(=O)Cc3ccc(C)cc3)ncc2Cl)cc1

Taken from above:
VDR inh with Cc1cc(C)c(C)c(S(=O)(=O)N2CCN(c3ccc(O)cc3)CC2)c1C → -8%
VDR inh with O=C(NC(=S)N1CCN(c2ccc([N+](=O)[O-])cc2Cl)CC1)c1ccco1 → -8%

Some of the compounds tested; rates above refer to the full screens.
